# NPYLR7 ag – mosquito NPYLR7 agonism; HEK293T NPYLR7/Galpha15, GCaMP6s calcium fluorescence; activation, % at 10 µM; 270,000 compounds, 0.15% hits; AID 1259423; in the data active = activation above about 40%;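 also: 0% = vehicle and 100% = reference agonist at the receptor; some compounds past the cut are filed as inactive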
# NPYLR7 ag max-min – further read-out of NPYLR7 ag, marked with its call; activation, %; measured here: Max-Min RFU normalised activation; some inactives read as strong as hits;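 span of the calcium signal over five minutes; 0% = vehicle and 100% = native peptide agonist; compound fluorescence can raise it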
# Starred values were filed as active, the others as inactive; & = joins results of further samples. Not all compounds are listed, so the mix of outcomes need not match the whole.
molecule	NPYLR7 ag	NPYLR7 ag max-min
COc1ccc(C2CC(=O)c3cn4nc(SC)nc4nc3C2)c(OC)c1 (stereo unspecified)	4.8	2.9
CCOP(=O)(OCC)c1nc(-c2ccc(C)cc2)oc1NC	-0.5	-1.2
CCOC(=O)c1nn(-c2cccc(Br)c2)c(=O)cc1OCc1ccccc1F	14.2	8.5
COc1ccccc1C1=NN(C(=O)CN2CCN(c3ccccc3F)CC2)C(c2cc(C)ccc2C)C1 (stereo unspecified)	-2.3	6.0
CCN(CC)CCNC(=O)c1cc(NC(=O)Nc2ccc(C)cc2)ccc1N1CCC(C)CC1	2.1	7.0
COC(=O)C1CCN(C(=O)Cc2cc(-c3ccc4c(c3)OCO4)on2)CC1	0.2	5.9
COc1ccc(OC)c2sc(N(CCN3CCOCC3)C(=O)c3cc(C)no3)nc12	2.1	-1.6
COc1cccc(C(=O)NCCNc2ccc(Nc3ccccn3)nn2)c1OC	16.8	8.4
O=C(CCC(=O)N1CCN(c2ccccn2)CC1)Nc1ccccc1Nc1ccccc1	-16.1	-20.4
Cc1occc1C(=O)N1CC(c2ccncc2)C1	2.1	-0.4
CCOC(=O)C1(C)CCCCN1C(=O)c1cc(F)ccc1C (stereo unspecified)	1.5	0.0
COc1cccc(CN(CC2CC(c3ccc(F)cc3)=NO2)C(=O)c2cccc(F)c2)c1 (stereo unspecified)	-0.2	13.6
COc1cc2sc(C(=O)N(C)Cc3ccccc3)c(Cl)c2cc1OC	10.6	17.7
CC1CCc2ccccc2N1Cc1nnc(C(=O)Nc2ccc(F)cc2)s1 (stereo unspecified)	9.3	2.5
CCCc1cc(=O)[nH]c(-n2nc(C)cc2NC(=O)c2cc(OC)cc(OC)c2)n1	8.0	1.6
Cc1cn2c3c(=O)n(Cc4ccccc4)c(=O)n(C)c3nc2n1CCCn1ccnc1	1.2	8.6
C[C@@H]1CN(Cc2ccccc2)CCN1S(=O)(=O)N(C)CCC#N	10.7	5.7
N#Cc1c(NC(=O)Cn2cnc([N+](=O)[O-])n2)sc2c1CCCCC2	-4.5	-11.5
Cc1cccc2oc(-c3ccc(Cl)cc3OS(=O)(=O)c3cccc(C(F)(F)F)c3)nc12	-3.4	6.8
COc1ccc(C(=O)N2CC[C@@H](CC(=O)O)[C@@H](CCN(C)CCN(C)C)C2)cc1	-7.9	-16.5
COc1ccccc1NC(=O)N(C)CCN1C(=O)C(C)SC1c1ccc(Cl)c(Cl)c1 (stereo unspecified)	1.9	9.3
Nc1nc(N=Cc2ccccc2Cl)n[nH]1	1.7	1.0
Cc1cccc(-c2ncc(CN(C)CC3CCN(Cc4ccc(C)o4)CC3)cn2)c1	7.4	0.6
CC(NCc1cc(Br)c2c(c1)OCO2)c1ccccc1OC(F)F (stereo unspecified)	1.8	2.3
COc1cccc2cc(C(=O)Nc3cccc(C(C)=O)c3)c(=O)oc12	0.1	-16.6
Cn1cc(CNCCCn2cccn2)c(-c2ccc3c(c2)OCCO3)n1	4.5	1.8
CCOc1ccc(-c2n[nH]c(=S)n2CC(=O)N(C)C(C)c2ccccc2)cc1 (stereo unspecified)	4.5	1.2
COc1ccc(CCn2c(C)c(C)n3c4c(=O)n(CC(C)=O)c(=O)n(C)c4nc23)cc1OC	2.2	9.8
Cc1nc(SCc2cccc(C(=O)O)c2)nc(N2CCN(c3ccccc3F)CC2)c1C	0.7	8.5
COc1cccc(-n2nnc3c(SCc4ccccc4C)ncnc32)c1	-0.7	23.7
Cc1coc(-c2ccc(C)c(NC(=O)c3cccc(NS(C)(=O)=O)c3)c2)n1	4.7	1.7
CCOC(=O)CCC(=O)N1CCCN(c2c(-c3ccc(OC)cc3)cnc3ncnn23)CC1	-0.9	-2.5
CCOC(=O)c1nn(-c2ccc(F)cc2)c(=O)cc1OCC(=O)Nc1ccc(C)cc1C	8.5	4.6
COc1ccc(OC)c(Nc2nnc(-c3cc4cc(Cl)ccc4oc3=O)s2)c1	-7.8	-12.5
CN(C(=O)CC1C(=O)NCCN1Cc1cccc(Oc2ccccc2)c1)C1CCOCC1 (stereo unspecified)	9.5	7.3
COCCCN(CC(=O)N(CCc1c[nH]c2ccccc12)Cc1ccccc1)C(=O)/C=C/c1ccccc1	-3.9	2.9

# Quoted from the results shown for reference:
molecule	NPYLR7 ag	NPYLR7 ag max-min
COc1ccc(C2CC(=O)c3cn4nc(SC)nc4nc3C2)c(OC)c1 (stereo unspecified)	4.8	2.9
CCOP(=O)(OCC)c1nc(-c2ccc(C)cc2)oc1NC	-0.5	-1.2
CCOC(=O)c1nn(-c2cccc(Br)c2)c(=O)cc1OCc1ccccc1F	14.2	8.5
COc1ccccc1C1=NN(C(=O)CN2CCN(c3ccccc3F)CC2)C(c2cc(C)ccc2C)C1 (stereo unspecified)	-2.3	6.0
CCN(CC)CCNC(=O)c1cc(NC(=O)Nc2ccc(C)cc2)ccc1N1CCC(C)CC1	2.1	7.0
COC(=O)C1CCN(C(=O)Cc2cc(-c3ccc4c(c3)OCO4)on2)CC1	0.2	5.9
COc1ccc(OC)c2sc(N(CCN3CCOCC3)C(=O)c3cc(C)no3)nc12	2.1	-1.6
COc1cccc(C(=O)NCCNc2ccc(Nc3ccccn3)nn2)c1OC	16.8	8.4
O=C(CCC(=O)N1CCN(c2ccccn2)CC1)Nc1ccccc1Nc1ccccc1	-16.1	-20.4
Cc1occc1C(=O)N1CC(c2ccncc2)C1	2.1	-0.4
CCOC(=O)C1(C)CCCCN1C(=O)c1cc(F)ccc1C (stereo unspecified)	1.5	0.0
COc1cccc(CN(CC2CC(c3ccc(F)cc3)=NO2)C(=O)c2cccc(F)c2)c1 (stereo unspecified)	-0.2	13.6
COc1cc2sc(C(=O)N(C)Cc3ccccc3)c(Cl)c2cc1OC	10.6	17.7
CC1CCc2ccccc2N1Cc1nnc(C(=O)Nc2ccc(F)cc2)s1 (stereo unspecified)	9.3	2.5
CCCc1cc(=O)[nH]c(-n2nc(C)cc2NC(=O)c2cc(OC)cc(OC)c2)n1	8.0	1.6
Cc1cn2c3c(=O)n(Cc4ccccc4)c(=O)n(C)c3nc2n1CCCn1ccnc1	1.2	8.6
C[C@@H]1CN(Cc2ccccc2)CCN1S(=O)(=O)N(C)CCC#N	10.7	5.7
N#Cc1c(NC(=O)Cn2cnc([N+](=O)[O-])n2)sc2c1CCCCC2	-4.5	-11.5
Cc1cccc2oc(-c3ccc(Cl)cc3OS(=O)(=O)c3cccc(C(F)(F)F)c3)nc12	-3.4	6.8
COc1ccc(C(=O)N2CC[C@@H](CC(=O)O)[C@@H](CCN(C)CCN(C)C)C2)cc1	-7.9	-16.5
COc1ccccc1NC(=O)N(C)CCN1C(=O)C(C)SC1c1ccc(Cl)c(Cl)c1 (stereo unspecified)	1.9	9.3
Nc1nc(N=Cc2ccccc2Cl)n[nH]1	1.7	1.0
Cc1cccc(-c2ncc(CN(C)CC3CCN(Cc4ccc(C)o4)CC3)cn2)c1	7.4	0.6
CC(NCc1cc(Br)c2c(c1)OCO2)c1ccccc1OC(F)F (stereo unspecified)	1.8	2.3

# New compounds follow.
molecule	NPYLR7 ag	NPYLR7 ag max-min
C=CCOc1c(Br)cc(/C=N\NC(=O)COc2nc(C)cc(COC)c2C#N)cc1Br	-12.3	-15.0
CCS(=O)(=O)N1CCN(C(=O)Nc2ccc(C)cc2F)CC1	1.2	4.2
O=C1C(C(c2cccs2)N2CCc3ccccc3C2)Sc2ncnn21 (stereo unspecified)	1.8	0.5
Cc1nc2c(cnn2-c2ccccc2)c(=O)n1NC(=S)Nc1ccccc1	9.5	18.3
CCCCCC(C)NCc1sccc1C (stereo unspecified)	11.2	8.5
CSc1ccc(COc2ncnc3sc4c(c23)CCC4)cc1	-0.1	-5.7
O=C(Nc1ccc(SCc2ccccc2F)nn1)c1ccco1	4.8	-4.9
Fc1ccc(-c2csc(SCc3cn4ccccc4n3)n2)cc1	6.7	11.4
COc1cc(OC)c(NC(=O)N2CC(=O)N3CCc4c(F)cccc4C3C2)cc1Cl (stereo unspecified)	1.7	10.2
Fc1ccc(-n2c(C3C4CCCCC43)n[nH]c2=S)cc1 (stereo unspecified)	-9.2	-10.9
COc1cc(CN2CCC(NCc3scnc3C)C2)cc(OC)c1 (stereo unspecified)	5.4	3.2
CC1C(=O)N(c2ccc(Oc3ccccc3)cc2)CCN1C(=O)Cc1ccccc1 (stereo unspecified)	1.3	5.0
Cc1cc(C)c(S(=O)(=O)NC2CC(C)(C)NC(C)(C)C2)cc1C	3.8	2.0
CC(=O)N(Cc1noc(C2CC2)n1)C1CCN(CC2CCOCC2)C1 (stereo unspecified)	4.5	2.5
CC(C)CN(CC(O)c1ccccc1)C(C)c1nc(C2CC2)no1 (stereo unspecified)	0.1	-0.7
Cc1cc(C)nc(NN=Cc2c(C)nc3scc(C)n23)n1	-16.2	-22.6
N#CC1C(=N)Oc2n[nH]c(C(F)(F)F)c2C1c1ccco1 (stereo unspecified)	5.3	1.6
CC(C)C(=O)NNC(=O)c1nn(C)c(=O)c2ccccc12	1.5	5.8
Cc1cn2c3c(=O)n(CC(=O)OCc4ccccc4)c(=O)n(C)c3nc2n1C1CCCC1	3.8	6.3
O=C1C=CC2=C3c4cc(O)c(O)cc4CC3(O)COC2=C1O (stereo unspecified)	-1.7	-5.1
CC(C)c1cc(C(=O)N2CCc3onc(-c4ccc5c(c4)OCO5)c3C2)n[nH]1	0.0	-0.1
O=C(CCc1nnc(C2(c3ccc(Cl)cc3)CCC2)o1)NCCCN1CCCC1=O	0.0	-2.9
CCCSc1ncc(CN2CCC3(CCC(=O)N(C)CC3)CC2)cn1	-9.3	-11.3
c1ccc(COC2CCCN(Cc3ccc4c(c3)OCCO4)C2)nc1 (stereo unspecified)	-3.1	6.6
O=C(Nc1c2c(nn1-c1nc3ccccc3s1)CCC2)c1cccs1	6.3	2.4
O=C(NCC1CCCO1)C1CC(=O)N(C2CCCCCCC2)C1 (stereo unspecified)	10.9	6.0
CC(NC(=O)C1CCN(C(=O)C2CC2)CC1)c1cccc(C#N)c1 (stereo unspecified)	4.8	1.5
CC(NC(=O)C1CCN(S(=O)(=O)c2ccc3c(c2)OCCCO3)CC1)c1cccc(Cl)c1 (stereo unspecified)	1.6	6.4
CCCCN(C)c1c(CC)nc2ccc(C(=O)NCCCn3ccnc3)cn12	5.7	-6.6
Cc1c(C(C)NC(=O)CCCN2CCCC2=O)cnn1-c1cccc2ccccc12 (stereo unspecified)	3.2&7.4	1.1&1.9
Cc1ccc(S(=O)(=O)NCC(=O)N(CCC#N)CC2CCCO2)cc1 (stereo unspecified)	9.2	2.4
CC1CN(S(=O)(=O)NC(C)c2ccc3ccccc3c2)CC(C)O1 (stereo unspecified)	-2.4	-5.5
Cn1cc(C(=O)NC2CCCCC2)c2nn(-c3ccccc3)c(=O)c-2c1	9.7	8.8
FC(F)(F)c1cccc(NCc2n[nH]c(=S)n2C2CCCCC2)c1	0.8	1.4
COC(=O)C1=C(C)N=c2s/c(=C/c3cccc([N+](=O)[O-])c3)c(=O)n2C1c1ccc(OC(C)=O)cc1 (stereo unspecified)	-10.4	-18.1
C=CCNc1sc(S(=O)(=O)CC)nc1S(=O)(=O)c1ccc(Cl)cc1	-0.5	-1.0
O=C1CCC(=O)N1OCCOc1ccc2c(c1)CCC2	-1.8	-4.2
O=C(NCc1ccncc1)c1cnn(-c2ccccc2Cl)c1-c1ccccc1	6.8	17.0
CCCc1cnc(C)nc1-c1ccccc1CO	-3.5	-2.7
COCCc1noc(C2CCCCN2CC(=O)Nc2ccc(C)c(C)c2)n1 (stereo unspecified)	-1.6	-5.9
Cc1nc2c(OCc3ccc(Cl)cc3Cl)cccn2c1N(C)CC1CC1	7.4	-2.0
CCn1c(C)c(C(=O)CN(CC2CCCO2)C(=O)c2ccccc2F)c(C)c1C(=O)OC (stereo unspecified)	-6.6	-1.9
Cc1ccc(-n2cccn2)c(CN2CCC(C(=O)N3CCOCC3)CC2)c1	0.1	-1.9
O=C1/C(=C/c2ccc(-c3ccc(Cl)c(Cl)c3)o2)C=C(c2ccccc2)N1c1ccc(Br)cc1	0.3	8.0
O=C(c1ccc(C(F)(F)F)nc1)N1CCOC(COCc2cccc(C(F)(F)F)c2)C1 (stereo unspecified)	4.9	8.6
CSc1ccc(/C=C2/N=C(c3cccc([N+](=O)[O-])c3)OC2=O)cc1	-0.2	2.8
CCNC(=O)NC(=O)CN1CCC2(CC1)OCCO2	1.7	0.8
Cc1ccccc1C1c2ccsc2CCN1CCC(=O)N1CCCN(C(=O)C(C)(C)CCl)CC1 (stereo unspecified)	19.2	15.0
CN1C(=O)C2(CCN(C(=O)c3ccc(F)c(F)c3)CC2)c2ccccc21	1.2	-0.7
CN1C(=O)c2cccc3c(S(=O)(=O)Nc4nccs4)ccc1c23	7.6	7.9
COc1ccc(CC(=O)NCCS(=O)(=O)N2CCc3ccccc32)cc1OC	-6.9	-7.6
CC(C)c1cc(C(=O)N2CCCC(c3[nH]ncc3-c3ccccc3)C2)on1 (stereo unspecified)	8.9	5.0
Cc1ccc(OCC(=O)Nn2cnc3scc(-c4ccco4)c3c2=O)c(C)c1	5.8	4.2
Cc1ccc(Cc2nc(CSc3ccccc3Cl)cs2)cc1	6.4	3.4
CCOC(=O)N1CCN(C(c2cccs2)c2c(C)[nH]c3ccccc23)CC1 (stereo unspecified)	-0.1	-1.4
COCCNC(=O)CCC1CCN(C(=O)NCc2ccccc2)CC1	7.2	6.5

# Two records picked at random from the list so far:
molecule	NPYLR7 ag	NPYLR7 ag max-min
COc1ccc(CC(=O)NCCS(=O)(=O)N2CCc3ccccc32)cc1OC	-6.9	-7.6
COCCNC(=O)CCC1CCN(C(=O)NCc2ccccc2)CC1	7.2	6.5

# Bioassay records deposited in PubChem BioAssay by Fisher Drug Discovery Resource Center.
